Source: PubChem BioAssay
NPYLR7 ag: mosquito NPYLR7 agonism | HEK293T NPYLR7/Galpha15, GCaMP6s calcium fluorescence | activation, % at 10 µM | hit rate 0.15% among 270,000 | AID 1259423; in the data active = activation above about 40%;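 also: 0% = vehicle and 100% = reference agonist at the receptor; some compounds past the cut are filed as inactive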
NPYLR7 ag max-min: further read-out of NPYLR7 ag, marked with its call; activation, %; measured here: Max-Min RFU normalised activation; some inactives read as strong as hits;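 span of the calcium signal over five minutes; 0% = vehicle and 100% = native peptide agonist; compound fluorescence can raise it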
Numbers without * were called inactive; & = joins results of further samples. A portion of the library; rates above refer to the full screens.

Screens in order – NPYLR7 ag, NPYLR7 ag max-min
- Cc1cccc(-n2nc(C)c3c(NC4CCC(NC(=O)C5CCCC5)CC4)nc(C)nc32)c1 (stereo unspecified)
→ 7, 3
- O=C(C1Cc2ccccc2CN1CC(O)COc1ccccc1)N1CCCC1 (stereo unspecified)
→ 11, 6
- O=C(c1cccs1)N1CCN(Cc2nc(-c3cnccn3)no2)CC1
→ 1, -3
- C=CCNS(=O)(=O)c1nc2nc(C)c(C)c(C)n2n1
→ -5, -8
- COc1ccc(C(=O)C2CCN(C(=O)C=Cc3ccc(OC)cc3OC)CC2)cc1
→ 1, -2
- CSc1cc(C(=O)NCCc2n[nH]c(=O)[nH]2)c(Cl)cc1Cl
→ 2, 0
- O=S(=O)(NCCNc1ccc(Nc2ccncc2)nn1)c1ccc(C(F)(F)F)cc1
→ 12, 4
- Cc1ccc(CN2N=NC3C(=O)N(c4ccccc4)C(=O)C32)cc1 (stereo unspecified)
→ -2, -6
- O=S(=O)(c1ccc2oc(Nc3cc(Cl)ccc3F)nc2c1)N1CCOCC1
→ 0, -1
- CCN1CCN(C(=O)c2ccc(N3CCC(N4CCC(c5ccccc5)CC4)CC3)cc2)CC1
→ 16, 4
- Cc1ccc(NC(=O)C(C)N2CCC(C(=O)OC(C)(C)C)C2)c(C)c1 (stereo unspecified)
→ 14, 12
- CC(C)N1CCC(C)(C(=O)Nc2ccc(-n3cccc3)cc2)C1 (stereo unspecified)
→ -1, 1
- CCn1c(C(=O)OC)c(NC(C)=O)c2cc(NC3CCc4ccccc4C3)cnc21 (stereo unspecified)
→ 24, 16
- Cc1cccn2cc(Cn3c(=O)n(CC4CC4)c4ccc(C(=O)O)cc43)nc12
→ 0, -1
- O=C(NCCNc1nc(-c2ccc(F)cc2)nc2cc(Cl)ccc12)Nc1ccc(C(F)(F)F)cc1
→ 8, 9
- Cc1ccc(S(=O)(=O)n2cc(C)[nH]c2=O)cc1
→ -10, -15
- CCSc1nc2c(c(=O)[nH]1)C(c1cccs1)C1C(=O)CCCC1=N2 (stereo unspecified)
→ -2, -2
- CC(C)S(=O)(=O)Nc1cccc(Oc2ncccc2C(=O)N(C)CCNC(=O)C(F)(F)F)c1
→ 0, 0
- Cc1ccc(-n2nc(C)c(N=Nc3ccc(Cl)cc3C(=O)O)c2N)cc1
→ -1, -2
- Cn1c(=O)n(CC(=O)Nc2ccccc2-c2cccs2)c2ccccc21
→ -8, -9

A different layout for part of the listing above.
Molecule: O=C(c1cccs1)N1CCN(Cc2nc(-c3cnccn3)no2)CC1
  NPYLR7 ag: 1
  NPYLR7 ag max-min: -3
Molecule: C=CCNS(=O)(=O)c1nc2nc(C)c(C)c(C)n2n1
  NPYLR7 ag: -5
  NPYLR7 ag max-min: -8
Molecule: COc1ccc(C(=O)C2CCN(C(=O)C=Cc3ccc(OC)cc3OC)CC2)cc1
  NPYLR7 ag: 1
  NPYLR7 ag max-min: -2

Later entries
Screens in order – NPYLR7 ag, NPYLR7 ag max-min
- CC(C)c1ccc(-c2cn(C(C)c3nccs3)nn2)cc1 (stereo unspecified)
→ 11, 1
- Cn1cnnc1C1CCN(c2nc(-c3cccnc3)nc3c2cnn3C)CC1
→ 3, 3
- C#CCn1c(-c2cccs2)nc2ccccc21
→ 2, 8
- C=C(C)[C@@H]1CC=C(CN2CCCN(C(=O)COC)CC2)CC1
→ -3, -5
- CC(C)c1nc(CN(C)c2ncnc3[nH]ccc23)cs1
→ -1, -2
- Cc1cc(N2CCCN(Cc3ccc(Cn4cccn4)cc3)CC2)ccn1
→ 0, 1
- Cc1ccsc1CNC(=O)C1(C)CCCN1C(=O)C(C)C (stereo unspecified)
→ -2, -1
- CC1CN=C(c2cccn2Cc2ccc(F)cc2)O1 (stereo unspecified)
→ 7, 6
- CCOC(=O)c1nc2cc(C)c(C)cc2nc1N1CCN(S(=O)(=O)c2cc(OC)ccc2OC)CC1
→ 3, 1
- O=C(NCc1ccccc1)N1CCN(c2ccc(-c3cccs3)nn2)CC1
→ 3, 3
- Cc1cn2c(C)nc([N+](=O)[O-])c2n1CC(=O)O
→ -1, 0
- COc1ccc(C2=NN(C(=O)CN(C)C3CCN(C)CC3)C(c3ccc4c(c3)OCO4)C2)cc1 (stereo unspecified)
→ -9, -9
- NC(=O)c1ccccc1Oc1ncc(C(F)(F)F)cc1Cl
→ 2, 1
- COc1cccc(-c2cc(C(=O)N3CCN(c4cccc(Cl)c4)CC3)n3nc(-c4ccccc4)cc3n2)c1
→ 14, 16
- CC(=O)NCCC1CCN(c2cc(CN)nc(C)n2)CC1
→ 0, -1
- CNc1oc(-c2ccco2)nc1S(=O)(=O)c1ccc(Br)cc1
→ 2, 6
- Cc1cc(Cl)c(C)c(S(=O)(=O)Nc2c(C)nn(C)c2C)c1Cl
→ -4, -4
- Cc1cn2c3c(=O)n(Cc4ccccc4)c(=O)n(C)c3nc2n1CCCl
→ -8, -10
- Nc1nc(N2CCCCC2)nc(NCCO)c1[N+](=O)[O-]
→ 2, 0
- CCOC(=O)CNC(=O)N1CCC(OC)c2ccccc2N(C)C(=O)C1 (stereo unspecified)
→ -2, 8

Additional records
Screens in order – NPYLR7 ag, NPYLR7 ag max-min
- O=C(CCCS(=O)(=O)c1ccc(F)cc1)N(Cc1ccccn1)c1nc2ccccc2s1
→ 19, 15
- O=C(O)CC1SC(=NN=Cc2ccccc2O)NC1=O (stereo unspecified)
→ 3, 8
- CC(NC(=O)C1CCCCN1Cc1cnc2ccccn12)c1ccc(O)cc1 (stereo unspecified)
→ 2, 26
- CCCCCc1nc2ccc(Cl)cn2c1NC1CCCCC1
→ -2, 0
- CCN(CC)c1ccc(N2C(=O)CNC2=S)cc1
→ 1, 0
- N#Cc1ccccc1NC(=O)N1CCN(C(=O)c2ccco2)CC1
→ -1, -3
- CC(C)C(=O)NCCCn1nc(-c2ccco2)ccc1=O
→ -3, -6
- COC(=O)/C(=C/NCCc1c[nH]c2ccccc12)[N+](=O)[O-]
→ -1, -3
- COc1ccccc1C1NC(=O)N(C)C2=C1C(=O)N(Cc1ccccn1)C2 (stereo unspecified)
→ -5, 0
- Cc1ccccc1-c1cnnc(NCCCn2ccc3ccccc32)n1
→ 21&-5, 6&-5
- CCNc1ncc(C(=O)N(CC)Cc2cc(Cl)ccc2OC)cn1
→ 3, 5
- O=C(NCC(=O)N1CCCC1)c1cc(F)cc(Br)c1
→ 8, 6
- O=C(NC1CC2CCC(C1)N2Cc1ccc2c(c1)OCO2)c1ccc(F)cc1C(F)(F)F (stereo unspecified)
→ 3, 9
- COc1cccc(NC(=O)C2(C)CCN2C(=O)Cc2cccc3ccccc23)c1 (stereo unspecified)
→ 3, 2
- COc1ccc(OC(F)(F)F)cc1CC1(C)C(=O)Nc2cc(-c3ccc(F)cc3F)ccc21 (stereo unspecified)
→ 2, 5
- CN(Cc1ccccc1)C(=O)CCC1CCN(C(=O)C(=O)c2ccccc2)CC1
→ 1, -2
- COc1ccc(F)cc1-c1nc(N)nc(Nc2ccc(C)cc2)n1
→ 1, 1
- CC(Sc1nnnn1CC1CCCO1)C(=O)Nc1cccc(C(F)(F)F)c1 (stereo unspecified)
→ 6, 4
- O=C(Cn1cnc2c(nnn2Cc2ccccc2)c1=O)N1CCCC1
→ 6, 6
- COCC(=O)N1CCCN(Cc2cccc(-n3cccn3)c2)CC1
→ 0, -1

(more compounds)
Screens in order – NPYLR7 ag, NPYLR7 ag max-min
- CCN(CC)C(=O)c1cc2c(=O)n3ccccc3nc2s1
→ 10&13, 5&7
- CCCN(CC(=O)Nc1cc(C(C)(C)C)nn1-c1ccc(OC)cc1)C(=O)/C=C/c1ccccc1
→ -1, 11
- Cn1c(=O)[nH]c(=O)c2cc([N+](=O)[O-])cnc21
→ -6, -8
- CCOC(=O)N1CCN(C(=O)CC(c2cc(OC)cc(OC)c2)c2cn(CC)c3ccccc23)CC1 (stereo unspecified)
→ 1, 4
- CC(C)c1ccc2c(c1)sc(=NC(=O)c1ccn(C)n1)n2C
→ 3, 10
- O=C(NCCc1ccsc1)C1CC=CCC1 (stereo unspecified)
→ -4, -6
- CCOC(=O)c1c(NC(=O)c2cccc(C)c2)sc(C(=O)Nc2cc(C(F)(F)F)ccc2Cl)c1C
→ -6, 7
- Cc1cccc(-c2nc3scc(CCNS(=O)(=O)c4ccc(Oc5ccccc5)cc4)n3n2)c1
→ -7, -7
- NC(=O)C1CCN(C(=O)NCCc2ccc(N3CCCCC3)cc2)C1 (stereo unspecified)
→ 13, 5
- COc1ccc(-c2cc(C)cc3c2OC(CNC(=O)c2cccc(Cl)c2F)C3)nn1 (stereo unspecified)
→ 15, 2
- CC(C)Cc1cc(-c2nc3c([nH]2)CC(C)(C)CNC3=O)no1
→ 1, 1
- CCCCCNC(=O)C1CCCN(Cc2cccnc2OCC)C1 (stereo unspecified)
→ -2, -5
- CNC(=O)[C@@H]1C[C@@H](N)CN1C(=O)CCSc1ccc2c(c1)OCCO2
→ 17, 13
- Cc1cccc(Cn2c(N3CCC(C)CC3)nc3c2c(=O)[nH]c(=O)n3C)c1
→ 2, 0
- Cc1cc(=O)[nH]c(SCc2cn3cc(Cl)ccc3n2)n1
→ -4, -6
- CCN(CCC(F)(F)F)C(=O)Nc1ccn(-c2ccccc2)n1
→ 6, 4
- N#CC(=Cc1ccc(Cl)cc1Cl)C(N)=S
→ 7, 6
- Cc1cc(C)n(-c2ccc(NC(=O)C3CCN(C(=O)C#Cc4ccccc4)CC3)cc2)n1
→ 5, 1
- Cc1ccc(C2Nc3ccccc3C(=O)N2c2ccc(F)cc2Cl)o1 (stereo unspecified)
→ -1, 7
- Clc1ccc2c(N3CC(c4cccnc4)C3)ccnc2c1
→ 1, -5

(next part)
Screens in order – NPYLR7 ag, NPYLR7 ag max-min
- COc1ccccc1NC(=NS(=O)(=O)c1ccc(Cl)cc1)c1ccccc1
→ -6, -9
- Cc1ccc(-c2csc(NC(=O)c3ccc(Br)s3)n2)o1
→ -1, -3
- COCCN(CC(=O)N(CCc1c[nH]c2ccccc12)Cc1ccc(C(F)(F)F)cc1)C(=O)Nc1ccc(OC)cc1
→ 2, -10
- CC(OCC1CCCO1)C(=O)Nc1ccc2c3c(cccc13)CC2 (stereo unspecified)
→ -1, -3
- Cc1ccc(CNC(=O)c2cnc3c(-c4ccc5c(c4)OCO5)cnn3c2C)o1
→ 6, -1
- NC(=O)c1cnc2n1CCN(C(=O)c1nc3c(s1)CCCC3)C2
→ 20, 14
- O=C1/C(=C/c2cc([N+](=O)[O-])ccc2O)SC(=S)N1/N=C\c1ccccc1
→ -8, -12
- Cc1cc(C2(C)NC(=O)N(CC(=O)NCc3ccccc3F)C2=O)c(C)o1 (stereo unspecified)
→ 3, 1
- Cc1ccc(NCC(=O)NC(C)(C)C)cc1S(=O)(=O)N1CCCCC1
→ 13, 3
- CCC(C)c1ccc(-n2c(-c3cccc(OCc4ccccc4)c3)nc3ccccc3c2=O)cc1 (stereo unspecified)
→ 1, -1
- Cc1cc(CN2CCc3[nH]cnc3C2c2nc3ccccc3[nH]2)n[nH]1 (stereo unspecified)
→ 1, 4
- CNc1nc2cnc(Nc3ccccc3Cl)cc2n1CC1CC1
→ 8, 1
- Cc1ccc(C(=O)N2CC(=O)N(C3CCCCC3)CC(OCc3ccccc3)C2)cn1 (stereo unspecified)
→ -2, -9
- COCCN(CC(=O)Nc1nc(CC(=O)N2CCN(c3cccc(Cl)c3)CC2)cs1)C(=O)c1ccc(F)cc1
→ -8, 1
- CCCCCCCC(=O)Nc1ccc(N2CCC(Cc3ccccc3)CC2)c(C(=O)NCc2ccc(F)cc2)c1
→ 18, 24
- Cc1cc(C(=O)Nc2ccccc2OC(F)F)c(C)o1
→ 6, 0
- COC(=O)c1ccc(C2C(C(=O)OCc3ccccc3)=C(C)NC3=C2C(=O)CCC3)cc1 (stereo unspecified)
→ 3, 2
- Cc1ccc(Nc2cc3sc4c(F)c(F)c(F)c(F)c4[nH]c3c3c(=O)c4ccccc4c(=O)c23)cc1
→ 15, 29
- Cn1ccc(C(=O)Nc2cccc(-c3ccc4c(c3)CCO4)n2)cc1=O
→ 2, 2
- COC[C@@H]1CCCN1C(=O)[C@H]1Cc2c([nH]c3ccccc23)CN1
→ 4, 6

Later entries.
Screens in order – NPYLR7 ag, NPYLR7 ag max-min
- COc1ccc(CNC(=O)C(=O)Nc2ccc3c(c2)N(S(C)(=O)=O)CCC3)cc1
→ 13, 8
- CCOC(=O)c1nn(-c2ccc(C)cc2)c(=O)cc1OS(=O)(=O)c1cc(Cl)ccc1OC
→ 8, 8
- Cc1ccc2cc(C3(O)CCN(C(=O)CCn4cnnn4)CC3)ccc2n1
→ -9, -10
- Cc1ccc(S(=O)(=O)N(C)C2CCS(=O)CC2)cc1 (stereo unspecified)
→ 3, 1
- O=C1C(Cl)=C(Nc2ccccc2Cl)C(=O)N1c1ccccc1
→ -5, -11
- Cc1ccccc1-n1nc(C)c(-c2ccccc2)c1NC(=O)CN(C(=O)c1ccc(C(C)(C)C)cc1)C(C)C
→ 19, 25
- [O-][N+](=Cc1ccco1)c1ccc(Cl)cc1
→ 15, 9
- COc1cc2c(cc1OC)-c1cc3ccc(OC)c(OC)c3c[n+]1CC2
→ -2, -4
- CN(Cc1ccccc1)C1(C(=O)O)Cc2ccccc2C1
→ 7, 5
- Cc1ccc(-c2cnnc(NCC3(N4CCOCC4)CCCC3)n2)o1
→ 4, 2
- CCOc1ccccc1NC(=O)CSc1ccc2nnc(-c3ccncc3)n2n1
→ -6, -7
- CC(C)(C)c1ccc(S(=O)(=O)N2CCC(c3nc(-c4ccc(F)c(F)c4)no3)CC2)cc1
→ 27, 14
- Cc1cc(C)cc(N2CC(C)Cn3c2nc2c3c(=O)n(CCN3CCCCC3)c(=O)n2C)c1 (stereo unspecified)
→ 7, 11
- CCc1nnc(NC(=O)c2cccs2)s1
→ -8, -10
- C=CCCC(O)CN(Cc1ccc(F)cc1)Cc1ccc(C)s1 (stereo unspecified)
→ 1, 9
- CC(Nc1ncnc2sc3c(c12)CCCC3)c1ccccc1 (stereo unspecified)
→ 5, 6
- CC(C)c1ccc2nc(Cl)sc2c1
→ 3, -8
- O=C(NCC1CCCN(Cc2nccs2)C1)c1ccc(-c2ccccc2)cc1 (stereo unspecified)
→ 10, 5
- Nc1cc(-c2cccc3cnccc23)nc(N2CCCC2)n1
→ 10, 6
